GLA inh pH 4.5: blocks human alpha-galactosidase A at pH 4.5 | P06280 | purified enzyme, 4-MU-alpha-Gal fluorescence, pH 4.5 | activity change, negative = inhibition, % at 105 µM | 230,000 tested, under 10 active | AID 1467; inconclusive = small, poorly fitted or top-dose-only inhibition, or a rising curve; inactive = flat fitted curve, though single readings scatter; no compound was filed as active;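 also: 0% = full activity with enzyme and -100% = basal without enzyme; dose as in the result columns while the protocol names 77 µM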
Target sequence (P06280 whole entry, looked up): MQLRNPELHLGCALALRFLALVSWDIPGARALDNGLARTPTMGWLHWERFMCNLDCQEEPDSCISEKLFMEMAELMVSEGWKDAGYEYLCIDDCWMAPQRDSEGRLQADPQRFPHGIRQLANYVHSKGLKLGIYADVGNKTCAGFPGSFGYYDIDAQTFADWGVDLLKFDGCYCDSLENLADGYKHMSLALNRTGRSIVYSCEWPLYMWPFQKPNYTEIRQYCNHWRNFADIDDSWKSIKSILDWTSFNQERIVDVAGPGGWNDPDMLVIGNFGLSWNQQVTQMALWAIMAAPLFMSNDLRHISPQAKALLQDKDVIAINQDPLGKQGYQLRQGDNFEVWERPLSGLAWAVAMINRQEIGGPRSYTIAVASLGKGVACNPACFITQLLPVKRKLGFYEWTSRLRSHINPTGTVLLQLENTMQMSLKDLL
Rango complex inh: Rango-importin beta binding inhibition | Q14974 | Rango CFP/YFP FRET sensor + importin beta, 45 min | Potency, µM (series often up to 92.2 µM), for inactives: at the top dose inhibition of complex formation | actives 0.031% (n = 340,000); active = rising FRET ratio curve, often small or poorly fitted; inconclusive = mostly compound fluorescence or quenching in the first reads; inactive = flat curves in all reads;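 also: potency is read from the fitted curve at half-maximal effect; 0% = DMSO wells and 100% = buffer wells lacking importin beta; nearly all actives have a fitted effect of over 15% in size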
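FRET biosensor Rango (snurportin 1 IBB between N-terminal EYFP and C-terminal Cerulean), 50 nM in PBS/1 mM DTT/0.02% Tween-20/0.1% BSA, preincubated 5 min RT with compound; 0.125 microM importin beta added, 45 min RT, CFP/YFP FRET ratio read.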
miR-21 FLuc: raises the signal of a miR-21 reporter; Potency, µM (highest dose often 38.3 µM), for inactives: at the highest dose reporter change, positive = more light; AID 2288; 340,000 tested, under 10 active; HeLa miR-21 FLuc reporter, luciferase, 48 h; active = well fitted rising curve with a large enough effect; inconclusive = small, poorly fitted or top-dose-only effect; inactive = no such curve, though single readings can be large or run the other way;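 also: % of control where 0% means no effect; miR-21 action dims this reporter so a rising signal means less miR-21 action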
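HeLa cells endogenously expressing miR-21, stably carrying CMV-driven firefly luciferase with a downstream miR-21 binding site, 2000 cells/well. Titrations up to approximately 40 uM, 48 hours; luciferase luminescence read.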
Rango release inh: inhibition of RanGTP-driven Rango-importin beta dissociation; Biochemical FRET Rango-importin beta, RanGTP-induced dissociation; Potency, µM (highest dose often 46.1 µM), inactives show top-dose activity change, negative = inhibition; actives 0.071% (n = 340,000); AID 540253; active means falling FRET ratio curve, often poorly fitted, with flat reads before Ran was added; inconclusive means other falling curves, or compound fluorescence or quenching; inactive means flat or rising ratio curve;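 also: potency is read from the fitted curve at half-maximal effect; % of control where 0% means no effect; nearly all actives have a fitted effect of over 45% in size; -100% = wells without RanGTP and RCC1; the record marks most hits as doubtful in a second field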
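Rango FRET biosensor (snurportin-1 IBB flanked by N-terminal EYFP and C-terminal CFP10) at 0.1 uM, with 0.25 uM importin beta in PBS, 1mM DTT, 0.02% Tween-20, 0.1% BSA. 0.6 uM Ran, 2mM GTP and 0.2 uM RCC1 were then added for 45 min at room temperature. Inhibition read as loss of FRET rise.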
Numbers without * were called inactive; ? = inconclusive; nt = no result given; & = joins results of further samples. This is a subset. The share of hits here may be higher or lower than overall.

Under each structure – GLA inh pH 4.5, Rango complex inh, miR-21 FLuc, Rango release inh
CCc1nc2ccccc2n1CC(=O)Nc1cc(C)on1
→ 4, ?, -1%, 0%
CC(C)c1nc2cc(Cl)ccc2n(Cc2ccccc2)c1=O
→ nt, 3.5%, -13%, -2%
COc1ccc2cc(/C=N/NC(=O)c3ccc(CN(c4cccc(Cl)c4Cl)S(C)(=O)=O)cc3)c(Cl)nc2c1
→ -1, ?, 4%, -9%
Cc1noc(C)c1COC(=O)Cc1ccc(Cl)c(Cl)c1
→ 1, -3.8%, 0%, -4%
O=S(=O)(c1ccccc1)N(Cc1cccc(F)c1)c1ccccc1
→ nt, -1.4%, 0%, -3%
COc1ccc(C(=O)N2CCCC(Nc3ccc(C(C)C)cc3)C2)c(OC)n1 (stereo not given)
→ nt, -0.9%, 1%, -8%
O=C(CC(c1ccccc1)c1ccco1)N1CCCCC1 (stereo not given)
→ 2, nt, -6%, nt
Cc1c(C(N)=O)sc2ncn(CC(=O)N(C)C3CCCCC3)c(=O)c12
→ nt, -3.0%, 5%, 0%
C/C(=N\O)c1ccc2[nH]ccc2c1
→ 3, -2.2%, -30%, -6%
COc1cc(Cl)c(C)cc1Nc1ncccn1
→ nt, -0.2%, -16%, -5%
N#C/C(=C/c1ccc(-c2ccc(S(=O)(=O)N3CCOCC3)cc2)o1)C(=O)NC1CC1
→ nt, ?, nt, ?
OCC1OC(n2cnc3ccccc32)CC1O (stereo not given)
→ 5, 4.8%, -1%, -24%
CCOC(=O)C(Cc1nc(OCc2ccccc2)cc(OCc2ccccc2)n1)=NO
→ nt, 1.4%, nt, -7%
CCOC(=O)CCc1nc2ccccc2[nH]1
→ -5, 1.1%, -8%, 0%
CCOC(=O)N1CCC(NCCNC(=O)c2ccc(Cl)cc2)CC1
→ -5, 10%, -10%, 5%
Clc1cccc(C2Nc3cccc4cccc(c34)N2)c1
→ nt, 3.4%, 0%, 1%
CC(C)[C@H](NC(=O)[C@@H]1Cc2ccccc2CN1)C(=O)Nc1ccc2c(c1)OCO2
→ nt, -2.0%, -16%, -8%
CCCCCc1ccc(C(=O)CCCC)c(=S)[nH]1
→ -1, 1.0%, 29%, -2%
C#Cc1ccc(CN2CCC(Oc3cc(C(=O)NC4CC4)ccc3OC)CC2)cc1
→ nt, -2.0%, 0%, -17%
CC(C)c1ccc(OCC(=O)NC(C)c2ccccc2)cc1 (stereo not given)
→ nt, 1.3%, -11%, 10%
O=S(=O)(c1ccc(F)c(F)c1)N1CCN(c2ccccn2)CC1
→ nt, -1.5%, -14%, 27%
O=C(N/N=C/c1ccncc1)c1ccccc1
→ 0, 1.6%, -29%, -20%
Cc1ccc(NC(=O)CSc2nncn2N)cc1C
→ nt, -0.3%, -5%, 26%
Cc1ccccc1NC(=S)N(CCN1CCOCC1)Cc1ccccc1F
→ -3, -4.1%, -1%, -2%
NC(=NCCc1ccccc1)NS(=O)(=O)c1ccc2ccccc2c1
→ -1, 1.3%, 9%, -7%
COCC(C)n1c(SCC(=O)N2CCc3ccccc3C2)nc2ccccc2c1=O (stereo not given)
→ -5, 1.9%, 10%, -15%
Cc1sc2nc(-c3ccccc3)[nH]c(=O)c2c1-c1ccccc1
→ 10, nt, -9%, nt
CC1CN(C(=O)/C=C/c2cccc([N+](=O)[O-])c2)CC(C)O1 (stereo not given)
→ nt, -0.5%, nt, 3%
CC1(C)SC2C(NC(=O)COc3ccccc3)C(=O)N2C1C(=O)O (stereo not given)
→ 1&7, 0.6%&-2.9%, 0%, 2%&8%
CCC(=O)c1ccc(N2CCN(C(=O)c3ccccc3F)CC2)c(F)c1
→ 0, 2.2%, 4%, 7%
CC(=O)c1cc(CN2CCC(N3CCC(C(=O)NC(C)C)CC3)CC2)cs1
→ -1, -3.1%, 0%, -11%
COc1cc2c(cc1OC)[C@@H](NC(=O)Cc1ccc(F)cc1)[C@H](OCc1ccccc1)C2
→ nt, -2.5%, nt, -13%
Cc1cc(C)n(-c2ccc(Cl)c(C(=O)NCc3ccccc3)n2)n1
→ -12, 0.3%, -3%, -15%
O=C(/C=C/c1cccs1)Nc1cccc(NC(=O)/C=C/c2cccs2)n1
→ -14, ?, 25%, -14%
Cc1cc(C(=O)CN2C(=O)NC(C)(CC(C)C)C2=O)c(C)n1-c1ccc2c(c1)OCO2 (stereo not given)
→ 2, -0.8%, 3%, 1%
COc1cc(/C=N/n2nnnc2N)ccc1OCC(N)=O
→ nt, -1.4%, -2%, -1%
O=C(NCc1ccco1)C1CCN(S(=O)(=O)N2CCC3(CC2)OCCO3)CC1
→ -2, -0.5%, -3%, 0%
CCCc1nnc(NC(=O)CCC(=O)N2CCN(Cc3ccc(C)cc3C)CC2)s1
→ nt, -2.5%, 9%, -13%
Cc1c(NC(=S)NNC(=O)CCC(=O)O)c(=O)n(-c2ccccc2)n1C
→ 5, 3.3%, -2%, -10%
Cc1cc(C(N)=O)c2cc(Br)ccc2n1
→ -3, 0.9%, -5%, 6%
Cc1cc(C)nc(NS(=O)(=O)c2ccc(NS(=O)(=O)c3ccccc3)cc2)n1
→ 5, 3.3%, -1%, 0%
CC1=CC(C)(C)Nc2ccc(OC(=O)CN3C(=O)c4cccc5cccc(c45)C3=O)cc21
→ 6, ?, 15%, ?
CC(C)(C)N(Cc1ccccc1)C(=O)COC(=O)C1=NN(c2ccccc2)C(=O)CC1
→ nt, 11%, nt, 4%
O=C(N/N=C/c1ccco1)c1ccc(C(=O)N/N=C/c2ccco2)o1
→ -5, -3.6%, -2%, -13%
CCCCNC(=S)NC(C)(C)CO
→ -2, -1.9%, 0%, 4%
CCN(C(=O)CN1C(=O)S/C(=C\C=C\c2ccccc2)C1=O)C1CCS(=O)(=O)C1 (stereo not given)
→ nt, -3.1%, 3%, -35%
COc1cc(C2C(C#N)=C(N)Oc3cc(C)oc(=O)c32)cc(OC)c1OC (stereo not given)
→ -10, -0.6%, -1%, -15%
CN1CCN(NC(=O)c2cc([N+](=O)[O-])cc([N+](=O)[O-])c2)CC1
→ 3, 4.1%, -1%, -1%
Fc1ccccc1CCNc1c2c(nc3ncnn13)CCCC2
→ -21, -0.4%, -1%, -4%
COc1ccc(S(=O)(=O)NC2CCSc3ccccc32)cc1OC (stereo not given)
→ nt, 4.8%, -1%, -8%
CNC(=O)/C(=N\O)c1ccccc1
→ 15, nt, -13%, nt
CC(=O)NC(CC(=O)OCC(=O)N1c2ccccc2NC(=O)C1(C)C)c1ccccc1 (stereo not given)
→ nt, -2.2%, nt, 2%
CC(=O)N/C(=N/c1nc(C)cc(C)n1)Nc1cccc(C)c1
→ nt, 4.2%, -5%, 12%
CC(C)[C@H](NC(=O)c1ccccc1)C(=O)OCC(=O)c1ccc2c(c1)NC(=O)CO2
→ -5, -2.5%, -3%, -3%
COc1ccccc1-c1cc(C(=O)Nc2cc(C)n(Cc3ccc(Cl)cc3)n2)no1
→ -2, -2.1%, -1%, -5%
Cc1cc(=O)oc2c(CN3CCOCC3)c(O)ccc12
→ nt, ?, nt, -23%
CCCCN1C(=O)C(O)(CC(=O)c2ccccn2)c2ccccc21 (stereo not given)
→ 7, 0.0%, -1%, 2%
Cc1cccc(NC(=O)c2cc3cc([N+](=O)[O-])ccc3s2)n1
→ 4, -5.5%, -22%, 20%
Cc1cc(N2CCOCC2)n2nc(C)c(-c3ccccc3Cl)c2n1
→ nt, -1.0%, 8%, 15%
N#Cc1c(CSCC(=O)O)cc(=O)n2c1[nH]c1ccccc12
→ -1, ?, -2%, 18%

Record cards, from the list above. Order of values: GLA inh pH 4.5	Rango complex inh	miR-21 FLuc	Rango release inh
Profile of `Cc1cccc(NC(=O)c2cc3cc([N+](=O)[O-])ccc3s2)n1` → 4	-5.5%	-22%	20%
Profile of `CCCCN1C(=O)C(O)(CC(=O)c2ccccn2)c2ccccc21` (stereo not given) → 7	0.0%	-1%	2%
Profile of `COc1ccccc1-c1cc(C(=O)Nc2cc(C)n(Cc3ccc(Cl)cc3)n2)no1` → -2	-2.1%	-1%	-5%

Back to the main list, starting 4 compounds before the break.
Under each structure – GLA inh pH 4.5, Rango complex inh, miR-21 FLuc, Rango release inh
CCCCN1C(=O)C(O)(CC(=O)c2ccccn2)c2ccccc21 (stereo not given)
→ 7, 0.0%, -1%, 2%
Cc1cccc(NC(=O)c2cc3cc([N+](=O)[O-])ccc3s2)n1
→ 4, -5.5%, -22%, 20%
Cc1cc(N2CCOCC2)n2nc(C)c(-c3ccccc3Cl)c2n1
→ nt, -1.0%, 8%, 15%
N#Cc1c(CSCC(=O)O)cc(=O)n2c1[nH]c1ccccc12
→ -1, ?, -2%, 18%
C=CCNc1nc(N)c(C(=O)Nc2cc(C)on2)s1
→ -10, -2.3%, -32%, -7%
O=C(/C=C/c1ccc(S(=O)(=O)N2CCOCC2)cc1)NC(=S)Nc1ccc(N2CCOCC2)cc1
→ -6, 0.9%, -15%, 11%
CCC(C)NC(=O)C(=O)NCc1ccccn1 (stereo not given)
→ 0, 0.2%, -6%, -7%
COC(c1ccccc1)c1nnc(CCC(=O)N(C)C(C2CC2)C2CC2)o1 (stereo not given)
→ -3, -0.3%, -54%, 3%
COc1ccc(CP(=O)(c2ccccc2)c2ccccc2)cc1
→ nt, 5.0%, 3%, -12%
CN(C(=O)c1ccccc1Cl)c1ccccc1C(=O)NCCc1ccccc1
→ nt, -5.0%, 12%, 16%
CCCCN1C(=O)c2ccc(C(=O)NCc3ccco3)cc2C1=O
→ nt, 0.0%, -2%, 0%
Cc1ccc(-c2nn3c(C)nnc3s2)cc1NC(=O)c1cccnc1
→ 3, 0.3%, 0%, -1%
O=C(CSc1nc2ccccc2c(=O)[nH]1)c1ccc(O)cc1O
→ -3, -0.5%, -7%, -2%
O=C(CNC(=O)c1ccc([N+](=O)[O-])cc1)c1ccccc1
→ -20, -1.6%, -43%, -4%
CN(C)c1ccc(/C(=N\O)c2ccccc2)cc1
→ -10, 0.1%, -35%, -5%
Cc1cccc(OCCCC(=O)NCC(=O)Nc2cccc(C)c2C)c1
→ 2, -0.7%, -1%, 1%
COc1ccc(NC(=O)CCNS(=O)(=O)c2ccc3c(c2)CC(C)N3C(C)=O)cc1 (stereo not given)
→ nt, 2.5%, 3%, 0%
C#CCOCCOCCOCCNc1nc(N2CCN(C(=O)C([C@@H](C)CC)n3cc(C(N)CC(C)C)nn3)CC2)nc(N2CCN(C(=O)[C@H](CCC(=O)O)n3cc(C(N)[C@H](C)CC)nn3)CC2)n1 (stereo not given in full)
→ -5, 0.0%, 0%, 1%
COc1ccc(C(=O)NC2CCN(S(=O)(=O)c3ccccc3F)CC2)cc1
→ nt, -0.6%, 9%, 8%
N#CC1=C(N)C(C#N)(C#N)C(c2ccc[nH]2)C2CCCC=C12 (stereo not given)
→ 1, ?, -10%, ?
COc1ccc(CN2CCNC(=O)C2CC(=O)NC2CCCC2)c(C)c1C (stereo not given)
→ nt, -3.8%, -2%, -13%
OCC1(Cc2ccccc2)CCCN(Cc2cnn(-c3ccccc3)c2)C1 (stereo not given)
→ -6, 3.6%, -7%, 3%
CCCCn1c(=NC(=O)c2ccco2)c(C(=O)OCC)cc2c(=O)n3cccc(C)c3nc21
→ 7, ?, 5%, ?
C/C(N)=C(/C#N)C(=O)CSc1nnc(Nc2ccccc2)s1
→ 2, 0.5%, -31%, -5%
CC(C)CN1CCN(Cc2cccn2-c2cccnc2)CC1CCO (stereo not given)
→ -6, 0.7%, 1%, 2%
Cn1nccc1NC(=O)Nc1ccccc1
→ nt, 2.5%, -4%, 2%
CC1CCN(C(=O)c2[nH]cnc2C(=O)N2CCN(c3ccccc3)CC2)CC1
→ nt, 1.2%, nt, -10%

Bioassay records from PubChem.
